Source: PubChem BioAssay (ICCB-Longwood Screening Facility, Harvard Medical School)
S aureus helic: inhibitors of S. aureus replicative helicase, primary screen, biochemical, fluorescence unwinding readout. 120,000 tested, 0.05% active. inhibition, %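 (tested at about 80 µM)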. AID 485395, 2010. purified S. aureus helicase, fluorescence unwinding assay; about half of the hits fall short of the stated cut;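 active means both duplicates at 50% or more, or one of them with a favoured structure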;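 further: 0% = mean of negative control wells and 100% = mean of positive control wells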
MgrA-DNA mod: S. aureus MgrA activity modulators, primary screen, biochemical, S. aureus Newman, fluorescence polarization; MgrA-DNA binding; inhibition, %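 (about 10 µg/mL by stock and volumes)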; 84,000 tested, 0.13% active; AID 602314, 2012;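 active means above 50% in either of two replicates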;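 further: 0% = protein plus DNA without compound and 100% = DNA alone without protein; higher means less MgrA bound to DNA so lower polarization; one replicate is shown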
Starred values were filed as active, the others as inactive; . = not tested or not shown; & = joins results of further samples. A portion of the library; rates above refer to the full screens.

Compound | S aureus helic | MgrA-DNA mod
CCC(=O)N1c2ccccc2NC2=C(C(=O)CC(c3ccccc3)C2)C1c1ccc([N+](=O)[O-])cc1 (stereo unspecified) | . | -0.3
CC(=O)NC1CCCc2c1[nH]c1ccc(C)cc21 (stereo unspecified) | 3 | .
Cc1[nH]c2ccccc2c1/C=N/c1c(-c2ccco2)nc2ccccn12 | 11 | -3.1
NC(=O)c1cc(S(=O)(=O)N2CCCC2)ccc1OCc1nc(-c2ccccc2)no1 | -7 | .
Cc1cc(Br)ccc1NC(=S)Nc1ccc2ccccc2c1 | . | 4.3
CN(C)CCN1C(=O)c2oc3ccc(F)cc3c(=O)c2C1c1cccs1 (stereo unspecified) | 3 | .
CC1CCN(S(=O)(=O)c2ccc3ncn(CC(=O)N(C)Cc4ccccc4)c(=O)c3c2)CC1 | 6 | .
O=C(NCc1nc(-c2ccccc2)no1)C12CC3CC(CC(C3)C1)C2 | -11 | 0.8
COCc1cc(C)nc2sc3c(=O)n(C(C)(C)C)nnc3c12 | -8 | .
Cc1noc(C)c1C(=O)OCc1cc(F)cc2c1OC(c1ccccc1)OC2 (stereo unspecified) | 12 | .
Cc1cccc(N=C2NC(=O)CS2)c1 | 10 | .
Cc1ccc(S(=O)(=O)N2CCCC2)cc1-c1nnc2c3ccccc3c(C)nn12 | 11 | -0.8
CCc1ccc(NC(=O)C2CCN(C(=O)c3ccc(F)cc3)CC2)cc1 | 9 | -1.8
CCOc1ccc(C2Nc3ccccc3NC3=C2C(=O)CCC3)cc1 (stereo unspecified) | -5 | 1.5
Cc1cccc(C(=O)Nc2sc3c(c2C(=O)N2CCCC2)CCC3)c1 | -9 | .
CCOC(=O)N1CCN(C(=O)CCNS(=O)(=O)c2cc(Br)cnc2N)CC1 | -26 | .
CC(=O)N=c1sc2cc(S(C)(=O)=O)ccc2n1C | 2 | .
N#Cc1ccc(-c2csc(NC(=O)CCc3ccccc3)n2)cc1 | -11 | .
COc1ccc(OC)c(CCCCc2cc(OC)ccc2OC)c1 | . | -1.6
N#CNC1=NCN(Cc2ccccc2)CN1 | 9 | -4.7
COc1ccc(/C=C2\SC3C(C#N)=C(c4ccc(OC)cc4)C(C#N)=C(N)N3C2=O)cc1 (stereo unspecified) | -31 | .
COC(=O)c1cc2ccsc2n1CC(=O)Nc1ccc(C)cc1C | 12 | .
N#CCSc1nnc(NC2CCCCC2)s1 | -32 | .
Fc1cccc(Cl)c1C=Nc1cccnc1 | -31 | .
CCOC(=O)c1cc(NC(=O)Nc2nccs2)c(C)nc1C | -12 | .
CCOc1c(Br)cc(C(=O)N2CCC(C(N)=O)CC2)cc1OC | 25 | .
Cc1ccc(/C=N/N=C/c2ccc(C)s2)s1 | -2 | 3.5
O=C(Cn1ncc(Cl)c(Cl)c1=O)Nc1ccc(Cl)cc1 | 8 | .
O=C(NCc1ccccc1)c1ccccc1O | -10 | 3.0
C=Cn1cccc1-c1ccccc1 | -3 | .
COC(=O)CSC1=NC(=O)/C(=C/c2ccc(OC)cc2)S1 | -3 | -2.5
Cc1nc(N2CCC(C)CC2)c2c(C)c(C(=O)N3CCOCC3)sc2n1 | 11 | .
O=C1CCC(=O)N1c1ccc(C2CCCCC2)cc1 | . | -1.4
CCOC(CCn1c(SCc2cc(=O)n3ccccc3n2)nc2ccccc2c1=O)OCC | -3 | 1.1
Cc1nn(CCSc2cc(Cl)ccc2Cl)c(=O)c(C#N)c1C | 7 | .
COC(=O)c1ccc(Cn2c(O)c(N=O)c3ccccc32)o1 | 5 | 1.9
Cn1nc(C(=O)NCc2cccs2)c2c1-c1ccccc1SC2 | -3 | .
CSc1nc2ccccc2c(=O)n1C1CCCCC1 | 12 | 0.2
CCn1cc(C(=O)O)c(=O)c2ccc(C)nc21 | . | -1.9&0.9&1.1
O=S(=O)(c1cccc(Cl)c1)N1C=CC(C(F)(F)F)=NCC1 | . | -2.8
CC1CC(C)(C)C/C1=N\Nc1ccc([N+](=O)[O-])cc1[N+](=O)[O-] (stereo unspecified) | . | 4.1
CC(=O)Oc1ccc(C(c2ccc(OC(C)=O)cc2)c2ccccn2)cc1 | . | 3.2&1.4
CC(C)Cn1c(N)c(C(=O)NCc2ccc3c(c2)OCO3)c2nc3ccccc3nc21 | 13 | .
COc1ccc(-c2ccc(Nc3ccc(C(=O)N4CCCCCC4)cc3)nn2)cc1 | 10 | -0.1
C=CCn1c(COc2ccc(CC)cc2)nnc1SCC(=O)N(C)C1CCS(=O)(=O)C1 (stereo unspecified) | 7 | .
CN(C)CCN1C(=O)C2C3C=CC(C3)C2C1=O (stereo unspecified) | 0 | 4.9
CC1(C)CC(=O)C(C(C2=C(O)CC(C)(C)CC2=O)C(O)CO)C(=O)C1 (stereo unspecified) | -18 | .
O=C1NC(=Nc2ccc(Cl)cc2)SC1Cc1ccccc1 (stereo unspecified) | . | 1.1
Cn1cccc1Cc1nnc(SCC(N)=O)n1-c1ccc(F)cc1 | -18 | .
C=CCc1cc(/C=C2/SC(=O)N(CC(=O)N3CCCC3)C2=O)cc(OCC)c1O | -12 | 0.7

(cont.)
Compound | S aureus helic | MgrA-DNA mod
O=C(Cc1cn2ccsc2n1)NC(c1ccccc1)c1ccccc1 | -14 | 0.5
CCOC(=O)c1cc(-c2ccc(S(=O)(=O)N(C)Cc3cnn(-c4ccccc4)c3)s2)on1 | 6 | .
COc1ccccc1Nc1nc2nonc2nc1Nc1ccc(C)c(Cl)c1 | . | -2.0
O=C(NCCN1C(=O)S/C(=C\c2ccc(Cl)c(Cl)c2)C1=O)C1=COCCO1 | -11 | .
O=C(CSc1cccc[n+]1[O-])c1cccs1 | 1 | 1.9
O=S(=O)(c1ccc(F)cc1)N1CCCC1 | 8 | -1.6
CCOc1ccc(/C=C2/SC(=S)N(CC(=O)O)C2=O)cc1 | . | 0.0
Cc1ccc(-c2nc(NCCC3=CCCCC3)c3ccccc3n2)cc1 | -6 | 1.5
O=C(/C=C/c1ccccc1)N1CCN(S(=O)(=O)c2ccc(F)cc2)CC1 | 6 | .
CC(=O)Nc1ccc(SCC(=O)N(C)C2CCCCC2)cc1 | -18 | .
CN1/C(=N\O)c2cccc3cccc1c23 | 2 | 7.9
CCCN1C(=O)/C(=C/c2c(N3CCCC3)nc3ccccn3c2=O)SC1=S | -157 | .
Nc1nc(NCc2ccccc2OC(F)(F)F)n[nH]1 | . | -1.9
CCN(Cc1nc(-c2ccc(OC)cc2)no1)S(=O)(=O)c1c(C)cc(C)cc1C | -9 | .
O=C(NCCN1CCOCC1)c1sc2ccccc2c1Cl | 29 | .
Clc1nsc2ccccc12 | 15 | .
Cc1c(C(=O)NCc2ccc(OC(C)C)cc2)oc2ccc3c(c12)C=CC(C)(C)O3 | -14 | 0.6
CC1CN(C(=O)c2cc3ccccc3oc2=O)CC(C)O1 (stereo unspecified) | 9 | -3.9
CCn1c2ccccc2c2cc(CN3CCCC3)ccc21 | 19 | 0.3
CCCOc1cccc(N)c1 | 0 | 2.4
COc1ccc(CCNS(=O)(=O)c2ccc(C3CNC(=O)C3)cc2)cc1OC (stereo unspecified) | 17 | 0.5
CCc1ccccc1NC(=O)CN1CCN(C(=O)/C=C/c2cc(Cl)c3c(c2)OCCO3)CC1 | 11 | .
Cc1ccc(S(=O)(=O)NC(C)(C)CN2CCCCC2)cc1 | -4 | 0.2
Brc1ccc(-n2c(-c3ccco3)nc3nc4ccccc4nc32)cc1 | 3 | .
O=C(COc1ccc(Cl)cc1)Nc1cccc(Cl)c1 | -4 | -0.7
CC1CN(C(C)C)C(C)CC1OC(=O)c1ccccc1 (stereo unspecified) | 5 | .
CC(=O)NCCOc1ccc(C2CCCCC2)cc1 | 13 | 0.2
Nc1nnc(SCC2=CC(=O)N3C=CSC3N2)s1 (stereo unspecified) | -8 | .
COC(=O)c1ccc(COC(=O)C2CCN(c3ccc(C(F)(F)F)cn3)CC2)cc1 | 13 | .
CC(C)(O)CC1(CO)CCCCC1 | . | -1.4
c1ccc2c(c1)CCN(Cn1cnc3ccccc31)C2 | 5 | 2.0
O=C(CCN1C(=O)S/C(=C\c2ccc(Cl)cc2)C1=O)Nc1ccc(S(=O)(=O)Nc2nccs2)cc1 | . | 0.2
CCOC(=O)C1=C(C)NC(=O)NC1c1ccc(OCC(=O)N/N=C/c2ccc(N(C)C)cc2)c(OC)c1 (stereo unspecified) | -37 | .
CCCNS(=O)(=O)c1ccc(-c2ccc(=O)[nH]n2)o1 | 5 | .
Cn1[nH]c(=O)c2cnc3c(F)cc(F)cc3c21 | . | -1.3
O=C(O)CCCC(=O)Nc1nc(-c2ccccc2)cs1 | -23 | .
CCOC(=O)c1cc(C#N)c(Nc2ccccc2)nc1C(F)(F)F | . | -1.4
CC1CCN(C(=O)Oc2ccccc2)CC1 | 20 | 7.2
CCCCS(=O)(=O)N1CCOCC1 | 14 | -1.8
CC1CCCCC12NC(=S)N(c1ccc(Cl)cc1)N2 (stereo unspecified) | 19 | .
Cc1ccccc1Oc1ccc(-c2nc(N)nc(N)n2)cc1 | 9 | -0.6
CCc1ccc(-c2cc(C(=O)OC)c3ccccc3n2)cc1 | 4 | -1.9
Cc1c2cnn(-c3ccccc3)c(=O)c2c(C)n1CCCC(=O)N1CCOCC1 | -15 | .
Cn1nnnc1CN1CCOCC1 | 3 | .
OC(OCC1Cc2ccccc2O1)C1Cc2ccccc2O1 (stereo unspecified) | 0 | -1.1
CS(=O)(=O)Nc1csc2cc(C(F)(F)F)cc(Cl)c12 | . | -2.0
O=C(CSCc1ccco1)c1cc2ccccc2o1 | -7 | 2.0
Cn1cc(C(=O)c2cccc(Cl)c2Cl)cc1C(N)=O | . | -1.2
COC(=O)COc1ccc(S(=O)(=O)N2CCCCC2)cc1C | -3 | -3.5
O=C(O)CCC(=O)Nc1ccc(C(=O)N2CCCCC2)cc1 | 4 | -7.3

Other structures follow.
Compound | S aureus helic | MgrA-DNA mod
Cc1nnc(SCC(=O)c2ccc3c(c2)NC(=O)CO3)n(N)c1=O | -8 | .
COc1cccc(NC(=O)CN(C)CC(=O)Nc2cccc(C#N)c2)c1 | -7 | .
N#Cc1ccc(CSc2nc3ccccc3s2)cc1 | 13 | -0.1
Cc1[nH]c2ccccc2c1C(=O)CSc1ncnc2ccccc12 | -2 | -2.9
Cc1ccc(N2C(=O)C3C4C=CC(CNC(=S)NCc5ccccc5)(O4)C3C2=O)cc1 (stereo unspecified) | 13 | -0.7
O=C1CCCc2ccccc2N1Cc1ccccc1 | . | -0.7
COc1cc(OC)c(C(=O)N2CCCN(C)CC2)cc1OC | 4 | 0.6
CCn1c(=O)c2ccccc2c2c(O)nc(-c3ccccc3)n21 | -6 | .
CCn1c(CCCNC(=O)c2ccc(OC)c(OC)c2)nc2ccccc21 | -10 | .
Cc1ccccc1NC(=O)C1COc2ccccc2O1 (stereo unspecified) | . | 0.2
O=C(Cc1cc(F)cc(F)c1)n1nccc1-c1cccs1 | . | -3.4
CCOC(=O)c1oc2cc(OC)c(CC)cc2c(=O)c1-c1csc(-c2ccccc2)n1 | . | 0.2
CCOC(=O)c1c(NC(=O)C2COc3ccccc3O2)sc2c1CCCC2 (stereo unspecified) | . | 0.9
O=C(O)C1C2C=CC3(CN(C4CCCC4)C(=O)C13)O2 (stereo unspecified) | 12 | .
CC(=O)OC(C(=O)N1CCN(c2ccccc2F)CC1)c1ccccc1 (stereo unspecified) | -6 | .
CCOC(=O)c1oc2ccccc2c1NC(=O)c1ccccc1 | -11 | .
CSc1nnc(-c2ccc(C(F)(F)F)nc2C)o1 | . | -0.6
Oc1ccc2oc3c(c2c1)CCCC3 | 16 | .
O=c1nc(-c2ccccc2)cn[nH]1 | 10 | .
C(=N\N=C(c1ccccc1)C12CN3CN(CN(C3)C1)C2)/c1ccccc1 | 3 | 0.7
COc1ccc2c(=O)c(Oc3ccccc3F)c(C)oc2c1 | 1 | .
O=C(Nc1ccccc1)N1CCN(C(c2ccccc2)c2ccccc2)CC1 | . | -0.2
O=C(O)c1ccc(N=Cc2ccc3c(c2)OCO3)cc1 | . | 2.0
Cc1ccc(OCC(=O)NC2CCC(C)CC2)cc1C (stereo unspecified) | -13 | .
CCN=C1SC(CC(=O)Nc2ccccc2)C(=O)N1CC (stereo unspecified) | 14 | -3.6
O=C1OCCC1Sc1nc2ccccc2n1Cc1ccccc1 (stereo unspecified) | 9 | 0.7
COc1ccc(C2SCCN2C(=O)c2cc3ccccc3oc2=O)cc1[N+](=O)[O-] (stereo unspecified) | . | -2.8
CCOC(=O)c1sc(SC)c2c1CCc1cnc(SC)nc1-2 | . | -0.6
C/C(NNc1ccccc1)=C(/C#N)C(N)=S | -19 | .
